MenB inh = blocks the Mycobacterium tuberculosis MenB enzyme; MenB enzyme assay, absorbance read-out; some hits fall short of the stated cut; hit rate 0.43% among 100,000; inhibition, %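 (about 12 µg/mL by stock and volumes)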; AID 540299;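 active means mean of two replicates above 30%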;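 further: 0% = no compound and 100% = wells with inactive enzyme; the first replicate is given; strong numbers were not always called active; inactives centre near -10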
Polio RdRp inh = poliovirus RNA polymerase inhibition | hit rate 0.66% among 150,000 | poliovirus polymerase elongation, fluorescence polarization; active compounds read low | % elongation, % (compound at 16.7 µg/mL) | P03300 | AID 588519; in the data active means % elongation below about 90%; further: some results filed as inactive read as strong as hits
Target sequence (P03300 1749-2209 limits assumed): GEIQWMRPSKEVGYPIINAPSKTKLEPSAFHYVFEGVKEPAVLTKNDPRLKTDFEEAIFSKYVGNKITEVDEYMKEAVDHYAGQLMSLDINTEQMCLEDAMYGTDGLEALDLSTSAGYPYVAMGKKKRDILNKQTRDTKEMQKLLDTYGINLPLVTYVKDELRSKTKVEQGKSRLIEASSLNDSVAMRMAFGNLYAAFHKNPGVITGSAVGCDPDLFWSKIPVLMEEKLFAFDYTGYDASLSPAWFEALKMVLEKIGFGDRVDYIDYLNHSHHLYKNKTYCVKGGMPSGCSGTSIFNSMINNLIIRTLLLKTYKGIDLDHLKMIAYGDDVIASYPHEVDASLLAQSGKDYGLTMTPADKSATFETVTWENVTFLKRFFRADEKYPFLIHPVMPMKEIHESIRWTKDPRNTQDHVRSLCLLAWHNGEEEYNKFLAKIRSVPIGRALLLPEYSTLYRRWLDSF
Mtb MbtI inh = MbtI salicylate synthase inhibition. purified MbtI enzyme, fluorescence intensity read-out. inhibition, %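 (about 17 µg/mL by stock and volumes)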. hit rate 0.89% among 100,000;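 active means above 50% in both replicates, above 80% if mildly self-fluorescent; inactive means the rest, strongly fluorescent compounds included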;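 further: 0% = mean of negative and 100% = mean of positive controls; one replicate is shown; some compounds called inactive have numbers as strong as hits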
Target sequence (P9WFX0 whole entry, looked up): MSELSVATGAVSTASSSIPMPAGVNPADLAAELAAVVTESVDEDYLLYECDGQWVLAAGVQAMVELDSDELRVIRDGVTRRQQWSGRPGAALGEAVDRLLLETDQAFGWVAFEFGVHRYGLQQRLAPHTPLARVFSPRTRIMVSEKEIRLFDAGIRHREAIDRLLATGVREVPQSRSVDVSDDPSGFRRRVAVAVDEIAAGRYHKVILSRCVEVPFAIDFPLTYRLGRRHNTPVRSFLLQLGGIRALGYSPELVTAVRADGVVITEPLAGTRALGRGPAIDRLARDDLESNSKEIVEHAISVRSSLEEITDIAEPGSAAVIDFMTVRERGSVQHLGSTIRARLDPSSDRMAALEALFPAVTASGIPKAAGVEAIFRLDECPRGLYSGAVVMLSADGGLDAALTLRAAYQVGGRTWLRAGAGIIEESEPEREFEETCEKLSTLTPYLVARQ
Polio RdRp inh intensity = further read-out of Polio RdRp inh, marked with its call; % elongation; measured here: total intensity read-out; formula for this scale not given here;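 total fluorescence in place of polarization; lower means less elongation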
* = called active by the depositor; i = inactive; / = not tested or not shown; & = joins results of further samples. Random draw from the library, and some 2% of all compounds hit somewhere here.

no. | canonical_smiles | MenB inh | Polio RdRp inh | Polio RdRp inh intensity | Mtb MbtI inh
1 | COCC(C)N=C1NN=C(c2ccc(O)cc2O)CS1 (stereo unspecified) | -188 | 105 | 97 | 22
2 | O=C(NC(NC(=O)c1ccco1)c1ccc(Br)cc1)c1ccco1 | 3 | 100 | 102 | -12
3 | CN(C)c1nc(Nc2ccccc2)nc(N(C)C)n1 | 34 | 99 | 102 | 5
4 | CNC(=O)c1cc(Br)cc2c1OCC2 | -28 | 105 | 105 | 2
5 | O=C(O)CN1CCN(Cc2ccc(F)cc2Cl)C1=O | 0 | 98 | 101 | -1
6 | O=C(c1cc2ccccc2o1)N(Cc1c(F)cccc1Cl)C1CC1 | -25 | 111 | 118 | -5
7 | Cc1nn(C)c(C)c1NC(=O)CSc1nccc(-c2ccc(Cl)cc2)n1 | -23 | 102 | 101 | -5
8 | COc1ccc(Cn2c(O)c(N=O)c3ccccc32)cc1 | -7 | 103 | 104 | 21
9 | O=C(NC1CCN(Cc2ccccc2)CC1)C1CCCN(S(=O)(=O)c2cccc3nonc23)C1 (stereo unspecified) | 4 | 99 | 105 | -2
10 | O=C(NC1CN2CCC1CC2)c1cccc(Cl)c1 (stereo unspecified) | 3 | 105 | 97 | 0
11 | Cc1cccc(OCCNC(=O)c2cccnc2)c1 | -18 | 102 | 96 | /
12 | O=C1NC(Cc2c[nH]c3ccccc23)C(=O)N1Cc1ccc(Cl)cc1 (stereo unspecified) | 0 | 105 | 105 | -1
13 | Cc1[nH]nc2c1C1C(C2)C1(C)C (stereo unspecified) | -29 | 76* | 105* | -6
14 | CCC(=O)Nc1nnc(-c2ccc3c(c2)CCCC3)o1 | -18 | 101 | 101 | 14
15 | Cc1ccc(C)n1-c1ccc(C(=O)OC2CCOC2=O)cc1 (stereo unspecified) | 1 | 101 | 113 | -1
16 | N#CCCn1c(SCC(=O)NCCSc2ccc(Cl)cc2)nc2ccccc21 | -3 | / | / | 26
17 | CCOC(=O)C1=C(C(F)(F)F)Nc2ncnn2C1c1ccc(OC)cc1 (stereo unspecified) | 11 | 99 | 102 | -34
18 | CO/C(N)=N/C(=S)Nc1cccc(C(F)(F)F)c1 | -29 | 103 | 102 | -12
19 | CC(=O)N1CCN(C2CCN(CCc3ccccc3)CC2)CC1 | -19 | 100 | 105 | -17
20 | N=c1ccn2c(n1)O[C@@H]1C2O[C@H](CO)[C@H]1O (stereo partly specified) | -3 | 99 | 102 | -11
21 | CC(C)COC(=O)Nc1ccc2c(c1)OCO2 | 17 | 100 | 99 | -4
22 | N#Cc1cccc(NC(=O)C2SC(=Nc3ccccc3)C(C(=O)N3CCOCC3)=C2N)c1 (stereo unspecified) | -16 | 102 | 98 | 0
23 | CCOC(=O)c1oc2ccc(Br)cc2c1NC(C)=O | 14 | 101 | 100 | 12
24 | S=C(Nc1ccccc1)Nc1nc2ccccc2n1CCOc1ccc(Cl)cc1 | -48 | 108 | 115 | -1
25 | Cc1ccc(-n2c(SCc3nnc4n3CCC4)nnc2-c2ccccc2)cc1 | -20 | 100 | 106 | 34
26 | Cc1ccc(/C(C#N)=C\c2cc(C)n(C)c2C)cc1 | 0 | 99 | 105 | 0
27 | Cc1cc(Nc2ccccc2)n(CCOC(=O)COc2ccccc2)n1 | -46 | 97 | 90 | -4
28 | O=C(COc1ccccc1)N1CCN(c2ccccc2F)CC1 | 10 | 101 | 100 | 6
29 | O=C(c1cncc(Br)c1)N1CC=C(c2ccccc2)CC1 | -31 | 101 | 103 | -5
30 | CSc1ccc(CCNC(=O)c2cccc3c2C(=O)N(CC2CCCO2)C3)cc1 (stereo unspecified) | -20 | 104 | 105 | 0
31 | Cc1cc(C2=NN(C)C(=NCc3ccccc3)SC2)c(C)n1Cc1ccco1 | -13 | / | / | 12
32 | O=C1NC(=O)C2(CCCC2)N1 | -9 | 101 | 97 | -15
33 | CC(C)CC(=O)NC(c1ccccc1)c1c(O)ccc2ccccc12 (stereo unspecified) | 3 | 102 | 108 | /
34 | Nc1ccc(C(O)C(O)CO)cc1 (stereo unspecified) | -9 | 108 | 108 | /
35 | COc1ccccc1Nc1nnc(SCC(=O)N(C)Cc2cccs2)s1 | -2 | 104 | 104 | 29
36 | CCOC(=O)c1c(C)[nH]c(C)c1C(=O)CO/N=C/c1ccco1 | -4 | 103 | 100 | 1
37 | COc1ccc2cc3cc(C(=O)NCC4CCN(Cc5cccc(C)c5)CC4)sc3nc2c1 | -11 | 103 | 104 | 14
38 | NC(=O)c1ccccc1NC(=O)C(F)(F)F | 1 | 98 | 97 | 61
39 | Cc1cccn2c(=O)c3cc(C(=O)NCCN4CCOCC4)c(=N)n(C(C)C)c3nc12 | -278 | 104 | 107 | i
40 | Cc1cc(NC(=O)COC(=O)CSc2ccccc2)no1 | -21 | 104 | 107 | -9
41 | CC(OC(=O)CN1C(=O)c2ccccc2C1=O)C(=O)Nc1cccc(C#N)c1 (stereo unspecified) | -1 | 104 | 100 | 8
42 | COc1ccc(NC(=O)CN(CC(=O)Nc2ccc(OC)cc2)C(C)(C)CO)cc1 | -10 | 101 | 106 | -9
43 | CC(O)CNc1nc2ccccc2n1CC(=O)NCC(F)(F)F (stereo unspecified) | 10 | 101 | 107 | -3
44 | CCN(C(=O)COc1ccccc1C(N)=O)c1ccccc1 | -21 | 101 | 102 | -4
45 | CCCNC(=S)Nc1cc(OC)cc(OC)c1 | -21 | 100 | 101 | 4
46 | CCN1CCCC1CNc1nsc2ccccc12 (stereo unspecified) | -10 | 94 | 97 | 31
47 | CN(C)c1ccc(-c2[nH]c(=S)[nH]c(=O)c2C#N)cc1 | -211 | 99 | 92 | 57
48 | C=CCn1c(SCC(=O)Nc2ccccc2)nnc1C(CC(C)C)NC(=O)c1cccs1 (stereo unspecified) | 3 | 103 | 102 | 2
49 | Cn1c(=NC(=O)c2ccc(=O)n(Cc3ccccc3)n2)sc2ccccc21 | -2 | 106 | 108 | -5
50 | Cc1c(/C=C(\C#N)C(=O)NCc2ccccc2)cc(C#N)n1C | -44 | 101 | 101 | -140
51 | COC(CNC(=O)c1c[nH]c2ccc(S(=O)(=O)N3CCC(C)CC3)cc2c1=O)OC | -17 | 102 | 97 | 2
52 | CC1CCCN(C(=O)c2cc(=O)c3ccccc3o2)C1 (stereo unspecified) | / | 102 | 104 | 1
53 | O=C(Nc1ccccc1C(F)(F)F)NC1CCCCC1 | 14 | 102 | 106 | 1
54 | CC(OC(=O)C1COc2ccccc2O1)C(=O)c1ccccc1 (stereo unspecified) | -1 | 102 | 108 | 8
55 | CCn1c(=O)c(C(=O)Nc2nccs2)c(O)c2ccccc21 | 3 | 101 | 102 | -10
56 | Cc1nn2cnnc2c(C)c1CCC(=O)NCCCc1ccccc1 | 11 | 104 | 101 | i
57 | c1ccc(-c2cc(-c3ccccc3)n(-c3ccccc3)n2)cc1 | -28 | 109 | 102 | /
58 | CCC(C)N=C1NS(=O)(=O)C(c2ccc(F)cc2)=C1C (stereo unspecified) | 4 | 101 | 103 | -10
59 | Cc1ccc(-c2csc(-c3ccc(C(F)(F)F)cc3)n2)cc1 | -12 | 103 | 100 | -4
60 | Cn1[nH]c2nc3[nH]n(C)c(=O)c3c(-c3ccccc3)c2c1=O | -55 | 101 | 101 | -4

61) CC(=O)Nc1ccc(C(=O)OC2CCCCC2=O)cc1 (stereo unspecified)
62) Cc1ccc(CNS(=O)(=O)c2cn(C)c(=O)n(C)c2=O)cc1
63) S=C(CN1CCCC1=S)NCCc1ccccc1
64) Cn1c(CNC(=O)c2ccccc2F)nnc1SCC(=O)N1CCN(c2ccccc2)CC1
65) CCN1CCN(c2ccc(N3CCN(C(=O)c4cc(OC)c(OC)c(OC)c4)CC3)nn2)CC1
66) CC1CN(Cc2c(O)ccc3c(=O)c(-c4ccccc4Cl)coc23)CC(C)O1 (stereo unspecified)
67) CC(C(=O)N1CCCc2ccccc21)N1CCN(C(=O)c2ccccc2)CC1 (stereo unspecified)
68) O=C1N(O)C2(C=CCCC2)/C(=N/O)C12CCCCC2 (stereo unspecified)
69) CCC(NC(=O)COc1ccc(-n2cnnn2)cc1)c1ccc(Br)cc1 (stereo unspecified)
70) CN(C)c1ccc(P(=S)(N(C)C)N(C)C)cc1

assay / compound,61,62,63,64,65,66,67,68,69,70
MenB inh,-22,-28,-43,-14,-1,-31,-15,16,-21,8
Polio RdRp inh,103,104,100,101,99,101,103,101,103,102
Polio RdRp inh intensity,109,102,101,103,99,99,103,103,101,107
Mtb MbtI inh,-11,0,8,-13,-18,11,2,-7,-4,13

Rewritten field by field: part of the list above.
61) CC(=O)Nc1ccc(C(=O)OC2CCCCC2=O)cc1 (stereo unspecified)
  MenB inh = -22
  Polio RdRp inh = 103
  Polio RdRp inh intensity = 109
  Mtb MbtI inh = -11
62) Cc1ccc(CNS(=O)(=O)c2cn(C)c(=O)n(C)c2=O)cc1
  MenB inh = -28
  Polio RdRp inh = 104
  Polio RdRp inh intensity = 102
  Mtb MbtI inh = 0
63) S=C(CN1CCCC1=S)NCCc1ccccc1
  MenB inh = -43
  Polio RdRp inh = 100
  Polio RdRp inh intensity = 101
  Mtb MbtI inh = 8
64) Cn1c(CNC(=O)c2ccccc2F)nnc1SCC(=O)N1CCN(c2ccccc2)CC1
  MenB inh = -14
  Polio RdRp inh = 101
  Polio RdRp inh intensity = 103
  Mtb MbtI inh = -13

Following part:
71) O=C(NCCO)C(O)(c1ccccc1)c1ccccc1
72) CC1=Nn2c(nc3sc(C)c(C)c3c2=O)SC1
73) Cc1cnc(C(=O)NCCc2ccc(S(=O)(=O)NC(=O)NC3CCCCC3)cc2)cn1
74) CN1CCN(C(=O)c2ccco2)CC1
75) COC(=O)c1ccc(OC(=O)Cc2coc3cc(OC)ccc23)cc1
76) NC(=O)Nc1ccc(C(=O)OCC(=O)Nc2ccc(F)cc2F)cc1
77) CCC(Sc1nc2n[nH]c(C)c2c(=N)n1-c1cccc(Cl)c1C)C(=O)N(CC)CC (stereo unspecified)
78) CCOc1ccc(Cc2c(Cl)nc(SC)nc2Cl)cc1
79) COCCN1C(=O)/C(=C\c2cc(OC)ccc2OC)C(C(=O)OC)=C1C
80) CCOc1ncccc1C(=O)NCCOc1ccc(C)cc1

assay / compound,71,72,73,74,75,76,77,78,79,80
MenB inh,/,-2,-5&-4,-40,7,13,-4,-6,-18,-14
Polio RdRp inh,100,100,100&98&100,104,99,100,103,106,107,105
Polio RdRp inh intensity,97,104,103&102&100,101,99,104,101,114,103,109
Mtb MbtI inh,-13,1,-13&0,-10,4,69,3,/,-2,-13

81) O=C(Nc1ccnn1Cc1ccc(Br)cc1)[C@@H]1CCCN1C(=O)c1cccs1
82) Cc1ccc(C(C)C)cc1OCC(=O)N=c1sccn1C
83) CS(=O)(=O)N(CC(O)Cn1c2ccccc2c2ccccc21)c1ccccc1 (stereo unspecified)
84) COc1ccc2cc([C@H](C)CO)ccc2c1
85) COc1ccc(/C=C2\SC(N)=NC2=O)cc1O
86) CCN(Cc1ccccc1)C(=O)c1cc2cccnc2n(C)c1=O
87) CC1CCc2c(sc3nc(SCc4nc(-c5ccccc5)no4)n(C)c(=O)c23)C1 (stereo unspecified)
88) Cc1nc(C)c(C(=O)Nc2ccccc2)s1
89) CN(C)S(=O)(=O)c1ccc2oc(=S)[nH]c2c1
90) O=C1/C(=C\Nc2ccccc2F)S(=O)(=O)N(Cc2ccc(Cl)cc2)c2ccccc21

assay / compound,81,82,83,84,85,86,87,88,89,90
MenB inh,-36,5,-24,12,-56,-12,-4,15,-30,-30
Polio RdRp inh,100,103,105,99,102,108,97,101,88*,100
Polio RdRp inh intensity,88,107,101,102,101,104,93,103,73*,92
Mtb MbtI inh,9,11,31,-4,-62,5,/,-2,77,6

Three of the compounds above, with values under each structure:
The line under a structure holds: MenB inh, Polio RdRp inh, Polio RdRp inh intensity, Mtb MbtI inh
(83) CS(=O)(=O)N(CC(O)Cn1c2ccccc2c2ccccc21)c1ccccc1 (stereo unspecified)
    -24, 105, 101, 31
(65) CCN1CCN(c2ccc(N3CCN(C(=O)c4cc(OC)c(OC)c(OC)c4)CC3)nn2)CC1
    -1, 99, 99, -18
(38) NC(=O)c1ccccc1NC(=O)C(F)(F)F
    1, 98, 97, 61

Going on with the list:
91) CN(C(=O)Cc1cccs1)c1ccccc1
92) COc1ccc(C)cc1CCN
93) COc1cccc(NC(=O)c2cccc(OC)c2)c1
94) Cc1ccc(C)c(-c2nnc(NC(=O)Cc3ccccc3)o2)c1
95) Cc1cc(C(=O)N2CCC(Cc3ccccc3)CC2)c(C)o1
96) COc1ccc(CCNC(=O)C2CCCN(C(=O)N(C)C)C2)c(OC)c1 (stereo unspecified)
97) COC(=O)c1cc2c(s1)CS(=O)C2 (stereo unspecified)
98) Cc1cc(Cl)c(S(=O)(=O)Nc2ccccc2)cc1OCC(=O)Nc1nncs1
99) O=C(O)C1CCCN1c1nc(C(F)(F)F)nc2ccccc12 (stereo unspecified)
100) N#Cc1ccc(COC(=O)CSC2CCS(=O)(=O)C2)cc1 (stereo unspecified)

assay / compound,91,92,93,94,95,96,97,98,99,100
MenB inh,7,-7,-21,-5,-2,-22,-20,1,-3,-20
Polio RdRp inh,102,104,99,102,100,99,101,101,101,105
Polio RdRp inh intensity,106,105,98,100,106,103,95,103,103,104
Mtb MbtI inh,/,1,-13,-1,32,-10,-7,-8,1,-15
